Six1-Eya2 blk: inhibitors of human Six1/Eya2 interaction. Q15475+O00167. AlphaScreen GST-Six1/His-Eya2 binding, biochemical; active compounds read low; control for the full effect not named in the record. activity change, % (concentration not given with the values). 0.56% of 360,000 active. AID 651725; in the data active = activity change below about -65%; inconclusive = about -30% to -65%; inactive = above about -30%; note: % is set by controls: 0 for no effect and ±100 for the full control effect
Target sequence (O00167 whole entry, looked up): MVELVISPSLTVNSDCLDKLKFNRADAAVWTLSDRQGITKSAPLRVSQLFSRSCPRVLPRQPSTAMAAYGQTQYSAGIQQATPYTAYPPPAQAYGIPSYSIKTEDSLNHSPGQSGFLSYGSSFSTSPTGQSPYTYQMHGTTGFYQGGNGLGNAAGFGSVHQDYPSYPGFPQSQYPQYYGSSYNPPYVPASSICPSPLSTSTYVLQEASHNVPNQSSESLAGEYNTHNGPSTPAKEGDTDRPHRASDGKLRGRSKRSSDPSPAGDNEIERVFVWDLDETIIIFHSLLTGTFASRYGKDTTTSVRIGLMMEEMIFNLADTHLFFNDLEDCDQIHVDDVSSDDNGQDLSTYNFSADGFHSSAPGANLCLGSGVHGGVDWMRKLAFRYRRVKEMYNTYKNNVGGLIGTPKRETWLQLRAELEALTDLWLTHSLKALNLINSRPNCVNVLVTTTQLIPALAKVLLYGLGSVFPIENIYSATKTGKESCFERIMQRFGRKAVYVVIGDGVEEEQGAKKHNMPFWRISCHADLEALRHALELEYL
Target sequence (Q15475 whole entry, looked up): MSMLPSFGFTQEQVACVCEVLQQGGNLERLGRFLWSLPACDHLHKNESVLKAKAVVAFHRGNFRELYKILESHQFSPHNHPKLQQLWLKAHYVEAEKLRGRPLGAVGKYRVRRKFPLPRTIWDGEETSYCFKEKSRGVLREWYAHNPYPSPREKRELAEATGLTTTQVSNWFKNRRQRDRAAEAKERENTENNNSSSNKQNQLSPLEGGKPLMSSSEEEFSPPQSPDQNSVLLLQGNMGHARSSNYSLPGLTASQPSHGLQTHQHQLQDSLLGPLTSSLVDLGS
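Compounds are tested against tagged Six1 and Eya2 proteins bridged by glutathione donor and nickel acceptor beads; after a one-hour incubation at 37 °C without light, AlphaScreen emission is recorded.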
D2 ag: human D2 receptor agonism in beta-arrestin assay. P14416. DiscoveRx PathHunter D2 beta-arrestin, luminescence, 90 min; 100% = 57 uM dopamine signal. activation, % (concentration not given with the values). 0.084% of 360,000 active; in the data active = activation above about 40%; inconclusive = about 15% to 40%; inactive = below about 15%; note: compound concentration not given in the record; the text of the record calls up to 30% inactive
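Agonist mode: compounds alone added to overnight-plated D2 PathHunter cells for 90 min at 37 C, with 57 uM final dopamine (EC100) defining full response. Beta-arrestin recruitment detected by chemiluminescent reagent, read after 1 h at ambient temperature.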
D2 potentiator: human D2 receptor positive allosteric modulation. P14416. DiscoveRx D2 beta-arrestin cells, luminescence, 90 min; 100% = 57 uM dopamine signal. potentiation, % (concentration not given with the values). 0.23% of 360,000 active; active = potentiation of 50% or more; inconclusive = 30% to 50%; inactive = 30% or less;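 note: compound concentration not given in the record; tested on top of an EC20 dose of dopamine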
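PathHunter beta-arrestin assay in DiscoveRx D2 cells. Compounds were added with an EC20 of dopamine (50 nM final) for 90 min at 37 deg C. Luminescence was read 1 h after detection reagent, with 57 uM dopamine as the EC100 control.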
Sfp inh: Sfp phosphopantetheinyl transferase inhibition; Q9F4F7; Biochemical Sfp PPTase activity, qHTS; Potency, µM, inactives show max response, negative = inhibition, actives largely listed as inhibitors; 3.5% of 310,000 active; active = well fitted inhibition curve with a large enough effect; inconclusive = small, poorly fitted or top-dose-only effect, or another doubt; inactive = no such curve, though single readings can be large or run the other way;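 note: the enzyme is Sfp with the accession as filed and its product quenches rhodamine fluorescence; potency is the fitted concentration of half-maximal effect; 0% = enzyme reaction without inhibitor and -100% = no enzyme wells; top concentration of the series not given in the record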
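Fluorescence-quenching assay: 15 nM Sfp-PPTase preincubated 15 min at room temperature with compound, then 5 uM rhodamine-CoA and 12.5 uM BHQ-2-labelled YbbR peptide added. Fluorescence (ex 525/em 598 nm) read at start and after 30 min; difference gives rate.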
CtBP-E1A blk: inhibitors of CtBP/E1A interaction. activity change, % (concentration not given with the values). AlphaScreen GST-E1A/His-CtBP binding, 1536-well; active compounds read low; control for the full effect not named in the record. 0.49% of 340,000 active; in the data active means activity change below about -65%; inconclusive means about -30% to -65%; inactive means above about -30%; note: % is set by controls: 0 for no effect and ±100 for the full control effect
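Protein mix (5X: 125 nM each GST-E1A, His-CtBP) was incubated with pinned compound 2 h at 37 deg C in dark, in 50 mM Tris pH 8.0 buffer with 300 mM NaCl. Glutathione donor and nickel acceptor beads followed; AlphaScreen signal read after 1 h.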
TRPV1 PAM: potentiators of human vanilloid receptor 1 (TRPV1); Q8NER1; TRPV1-expressing cells, Fluo-8 calcium influx, capsaicin EC20 potentiation; host cell line not named in the record; control for the full effect not named in the record; potentiation, % at 8.33 µM; 0.02% of 320,000 active; AID 540277; active means potentiation above 80%; inconclusive means 30% to 80%; inactive means below 30%; note: 0% is about no effect
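Cells expressing TRPV1 were dye-loaded with Fluo-8 and read kinetically: 10 s baseline, 3 min after compound (agonist portion), then 2 min after EC20 capsaicin (allosteric enhancer portion). Calcium-bound dye fluorescence at 480/520 nm.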
PINK1 expr mod: PINK1 expression modulation; AID 624263; Potency, µM (series often up to 76.6 µM), for inactives: at the top dose activation (PINK1 increase), most hits filed as activators; PINK1 immunofluorescence, high-content cytometry, 24 h; 0.2% of 410,000 active; active = well fitted activation curve with a large enough effect; inconclusive = small, poorly fitted or top-dose-only effect; inactive = flat fitted curve, though single readings scatter; cell line not stated here;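 note: potency is the fitted concentration of half-maximal effect; % of control where 0% means no effect; nearly all actives have a fitted effect of over 65% in size; a mitochondrial uncoupler was the plate control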
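Measures PINK1 amount and localization on or inside mitochondria by immunofluorescence. Stable cells get compounds at 5 concentrations for 24 hours before fixation and staining; CCCP controls included.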
* hit, by the source's call; ? = inconclusive; . = not tested or not shown; & = joins results of further samples; [ ] = dose if it differs, or a comment.

(1) CCC(C)(C)NC(=O)c1ccc2c(c1)S(=O)(=O)c1ccccc1C2=O
(2) O=C(NOC(=O)c1c(F)cccc1Cl)c1ccc(Cl)c(Cl)c1
(3) O=C(O)c1cc(Cl)c(Cl)cc1C(=O)NCc1ccco1
(4) CCOC(=O)c1ccc(N/C=C/C(=O)c2ccc(OC)cc2)cc1
(5) CCCCC(=O)N/N=C/c1sccc1C
(6) COc1ccc(/C=N/NC(=O)CN2CCCC2)cc1
(7) O=C(COc1ccc2ccc(=O)oc2c1)Nc1nccs1
(8) COc1ccc(-n2nc(C(=O)N3CCC(N4CCCCC4)CC3)c3c4ccccc4n(C)c3c2=O)cc1

| screen / no. | 1 | 2 | 3 | 4 | 5 | 6 | 7 | 8 |
| --- | --- | --- | --- | --- | --- | --- | --- | --- |
| Six1-Eya2 blk | -5 | 4 | -4 | 3 | 1 | -1 | -7 | -1 |
| Sfp inh | -2% | 5% | 9% | 12% | 14% | 18% | 22% | 13% |
| D2 potentiator | 71* | -10 | -5 | -3 | 2 | -8 | -10 | -12 |
| TRPV1 PAM | 25 | -23 | 26 | ? | -4 | -2 | 7 | 4 |
| CtBP-E1A blk | 39 | 13 | 0 | 11 | 7 | . | . | -2 |
| PINK1 expr mod | 2.0% | 0.5% | -2.0% | 5.9%[38.3 µM] | -0.8% | 1.1% | 1.7% | 1.3% |
| D2 ag | -0.9 | -3.2 | -2.0 | -3.5 | -14 | -3.5 | 3.4 | -2.6 |

(9) CNC(=O)c1[nH]cnc1C(=O)N[C@@H](CCCCNC(=O)OC(C)(C)C)C(=O)OC(C)(C)C
(10) Cc1ccc(S(=O)(=O)NN2C(=O)/C(=C/c3ccc(F)cc3)SC2=S)cc1
(11) CC(CN1C(C)CCCC1C)OC(=O)c1ccc(Cl)cc1 (stereo not drawn)
(12) NC(=O)C1CCN(CC(=O)N2N=CCC2c2ccccc2)CC1 (stereo not drawn)
(13) O=C(c1cccc([N+](=O)[O-])c1)N1CCCN(C(=O)c2cccc([N+](=O)[O-])c2)CC1
(14) COc1ccccc1N1CCN(CC(=O)Nc2nccs2)CC1
(15) COc1ccc(S(=O)(=O)Nc2c(O)c3ccccc3oc2=O)cc1
(16) O=C(O)c1ccc2c(c1)C(=O)N(c1ccc(C(=O)OCC(=O)c3ccccc3)cc1)C2=O

| screen / no. | 9 | 10 | 11 | 12 | 13 | 14 | 15 | 16 |
| --- | --- | --- | --- | --- | --- | --- | --- | --- |
| Six1-Eya2 blk | -10 | -1 | -3 | -3 | 1 | 3 | -2 | -7 |
| Sfp inh | 10% | 6% | 17% | -8% | -5% | 2% | 20% | . |
| D2 potentiator | -6 | -2 | -5 | -5 | -4 | -12 | -3 | -3 |
| TRPV1 PAM | -6 | 17 | 3 | 5 | -10 | 13 | 13 | . |
| CtBP-E1A blk | 2 | 7 | -11 | . | 0 | 8 | -25 | -1 |
| PINK1 expr mod | 1.7% | 2.3% | 1.3% | 1.2% | 0.0% | -0.9% | 3.5% | -1.0% |
| D2 ag | -1.8 | -2.6 | -7.9 | -2.6 | -1.2 | -1.6 | -1.4 | -5.8 |

(17) O=C(O)C1Nc2c(Cl)cc(Cl)c(Cl)c2C2C=CCC12 (stereo not drawn)
(18) CC(OC(=O)Cc1ccccc1[N+](=O)[O-])C(=O)Nc1ccc(Cl)cn1 (stereo not drawn)
(19) CCN(CC)c1cc2nonc2c2nonc12
(20) CCSC1=N/C(=C\C=C2/Oc3ccccc3N2CC)C(=O)S1
(21) O=C(Nc1nc(-c2cccs2)cs1)c1ccc([N+](=O)[O-])o1
(22) Cc1ccc([C@H]2C[C@@H](O)[C@H](n3cc(C4CC4)nn3)CN2C(=O)c2cccs2)cc1
(23) O=C(O)c1cccc(NS(=O)(=O)c2ccc(Cl)c(C(=O)Nc3cccc([N+](=O)[O-])c3)c2)c1
(24) CC(=C1C(=O)c2ccccc2C1=O)N1CCN(Cc2ccccc2)CC1

| screen / no. | 17 | 18 | 19 | 20 | 21 | 22 | 23 | 24 |
| --- | --- | --- | --- | --- | --- | --- | --- | --- |
| Six1-Eya2 blk | 2 | -4 | 20 | 9 | -4 | 2 | -25 | 0 |
| Sfp inh | . | . | -4% | -7% | . | . | . | -18% |
| D2 potentiator | -4 | -69 | 1 | -3 | -5 | 1 | -7 | -3 |
| TRPV1 PAM | . | -18 | -1 | -5 | -19 | . | . | ? |
| CtBP-E1A blk | . | -13 | 2 | -2 | 0 | 4 | -1 | -2 |
| PINK1 expr mod | 0.0% | -2.8% | . | 19% | 0.9% | 1.2% | 2.4% | 0.3%[38.3 µM] |
| D2 ag | 1.8 | -0.3 | -1.0 | -5.2 | -4.9 | -9.0 | -3.7 | -0.8 |

(25) COc1ccc(N2CCN(C(=O)C3CCN(C(=O)c4cccc(Cl)c4)CC3)CC2)cc1
(26) Cc1nc(NNC(=O)c2ccc(Cl)cc2Cl)cc(-c2ccccc2)n1
(27) O=C(N/N=C/C=C/c1ccccc1[N+](=O)[O-])c1cccnc1
(28) CCOC(=O)/C(=N\Nc1ccc(Cl)cc1)Sc1nnc(-c2ccc(OC)cc2)n1C
(29) Clc1ccccc1OCCCCN1CCCCC1
(30) Cc1ccc(CCNC(=O)CN2C(=O)COc3ccc(S(=O)(=O)N4CCOCC4)cc32)cc1
(31) Cc1ccc(NS(=O)(=O)c2ccc(NC(=O)c3ccccc3C(=O)O)cc2)cc1C
(32) COc1cccc(/C=C2\SC(=S)N(CCCC(=O)N(CCO)c3ccccc3)C2=O)c1

| screen / no. | 25 | 26 | 27 | 28 | 29 | 30 | 31 | 32 |
| --- | --- | --- | --- | --- | --- | --- | --- | --- |
| Six1-Eya2 blk | -4 | -14 | 1 | -11 | 1 | 2 | 6 | -13 |
| Sfp inh | -1% | 7% | 9% | -25% | -21% | 14% | . | -6% |
| D2 potentiator | -8 | -15 | -10 | -13 | -5 | -17 | 7 | -3 |
| TRPV1 PAM | 5 | 3 | -1 | 5 | 7 | -12 | . | 17 |
| CtBP-E1A blk | -1 | -9 | 13 | -4 | -10 | -1 | . | -17 |
| PINK1 expr mod | -0.8% | -1.0% | 2.0% | -3.3% | 1.8% | -0.4% | -0.6% | 2.3% |
| D2 ag | -0.5 | -3.3 | -0.6 | -5.1 | -5.0 | -8.5 | 3.5 | 6.6 |

(33) CCCOc1ccc(/C=N/NC(=O)C(=O)Nc2ccccn2)cc1
(34) Cc1ccc(C(C)NC(=O)C2CCCO2)cc1C (stereo not drawn)
(35) CC(C)Cn1c(N)c(C(=O)CSc2nnc(-c3ccco3)n2C)c(=O)n(C)c1=O
(36) CCS(=O)(=O)NCCc1csc(C)n1
(37) Cc1cc(NC(=O)COC(=O)c2c(C)nn(-c3ccccc3)c2C)no1
(38) COC(=O)c1ccc(C(=O)OC)c(NC(=O)C2CC2)c1
(39) COc1ccc(C(C)(C)C)cc1NC(=O)CCCN1C(=O)CN(C)C1=O
(40) CC(c1ccccc1)n1cnc2ccccc2c1=O (stereo not drawn)

| screen / no. | 33 | 34 | 35 | 36 | 37 | 38 | 39 | 40 |
| --- | --- | --- | --- | --- | --- | --- | --- | --- |
| Six1-Eya2 blk | 4 | -3 | 9 | 5 | -8 | 6 | 6 | 1 |
| Sfp inh | -3% | 4% | . | 13% | -9% | 10% | . | 4% |
| D2 potentiator | 0 | -9 | -3 | 4 | 8 | -8 | -10 | 2 |
| TRPV1 PAM | 10 | 11 | -5 | 22 | 7 | -15 | -4 | 16 |
| CtBP-E1A blk | 5 | -14 | 6 | -1 | 0 | 0 | -12 | 8 |
| PINK1 expr mod | 0.6% | -1.0%[38.3 µM] | 10% | -0.3% | 1.4% | 1.7% | 0.9% | 1.5% |
| D2 ag | 0.9 | -1.0 | -1.3 | 1.9 | -2.1 | -2.8 | 0.1 | -1.3 |

(41) COc1ccc(C(=O)Nc2ccc(S(=O)(=O)Nc3cc(C)nc(C)n3)cc2)cc1
(42) O=C(N/N=C1/CCCc2ccccc21)C(c1ccccc1)c1ccccc1
(43) CCCc1cc(C(=O)N/N=C/c2ccc(C)o2)c2ccccc2n1
(44) CCC(C)NC(=O)Nc1ccccc1C (stereo not drawn)
(45) O=C(NCCCN1CCOCC1)c1cc(Cl)ccc1[N+](=O)[O-]
(46) CC(CNS(=O)(=O)c1ccc2c(c1)CC(=O)N2C)c1ccccc1 (stereo not drawn)
(47) O=c1cc2[nH]c3ccccc3c(=O)n2nc1-c1ccccc1
(48) Cc1ccc(C(=O)NC2CCN(S(=O)(=O)c3ccccc3F)CC2)cc1

| screen / no. | 41 | 42 | 43 | 44 | 45 | 46 | 47 | 48 |
| --- | --- | --- | --- | --- | --- | --- | --- | --- |
| Six1-Eya2 blk | 16 | 0 | 9 | 4 | -2 | 3 | -9 | 17 |
| Sfp inh | 9% | 10% | -20% | 9% | -20% | -1% | 10% | 12% |
| D2 potentiator | -3 | -5 | -45 | -2 | -4 | -10 | 27 | -6 |
| TRPV1 PAM | 0 | 2 | 17 | -3 | 6 | 14 | 6 | -11 |
| CtBP-E1A blk | 0 | 5 | 13 | 3 | -5 | 1 | -10 | -14 |
| PINK1 expr mod | 2.3%&-0.4% | ? | 2.3% | -0.6% | 0.9% | 3.7%&1.2% | -1.3% | -0.8% |
| D2 ag | 2.3 | -1.7 | -3.5 | -2.4 | -1.1 | -1.9 | 1.7 | -4.1 |

(49) N=c1c(S(=O)(=O)c2ccc(Cl)cc2)cc2c(=O)n3ccccc3nc2n1CCN1CCOCC1
(50) COc1ccccc1OCCn1cc(/C=N/NC(N)=S)c2ccccc21
(51) COc1cc(NC(=O)COC(C)=O)c(C)cc1[N+](=O)[O-]
(52) CCC1Sc2ccc(S(=O)(=O)Nc3cc(OC)cc(OC)c3)cc2NC1=O (stereo not drawn)
(53) CCC(=O)Nc1ccc(NC(=O)CSc2nnnn2Cc2ccccc2)cc1C
(54) COc1cccc(-c2nnc3n2N=C(c2cccc(Br)c2)CS3)c1
(55) COc1ccc(C(=O)NCC(=O)NC2=NCCS2)cc1

| screen / no. | 49 | 50 | 51 | 52 | 53 | 54 | 55 |
| --- | --- | --- | --- | --- | --- | --- | --- |
| Six1-Eya2 blk | -20 | -23 | 7 | 2 | 32 | 0 | -1 |
| Sfp inh | 4% | -8% | 14% | 10% | 17% | -6% | 16% |
| D2 potentiator | -11 | -30 | -1 | -6 | 0 | -1 | -5 |
| TRPV1 PAM | ? | 23 | 2 | 1 | 17 | -8 | 28 |
| CtBP-E1A blk | -24 | . | 7 | . | -8 | 9 | -2 |
| PINK1 expr mod | 3.2% | -0.7% | -1.2% | 4.2% | 0.7% | -2.4% | -0.1% |
| D2 ag | 0.7 | -4.8 | -3.4 | 4.2 | -0.8 | -2.2 | -6.6 |
